Mtb MbtI inh: MbtI salicylate synthase inhibition. purified MbtI enzyme, fluorescence intensity read-out. inhibition, %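 (about 17 µg/mL by stock and volumes)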. AID 493033. 0.89% of 100,000 active;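 active means above 50% in both replicates, above 80% if mildly self-fluorescent; inactive means the rest, strongly fluorescent compounds included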;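 further: 0% = mean of negative and 100% = mean of positive controls; one replicate is shown; some compounds called inactive have numbers as strong as hits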
Polio RdRp inh: poliovirus RNA polymerase inhibition; P03300; poliovirus polymerase elongation, fluorescence polarization; hits give low values; % elongation, % (compound at 16.7 µg/mL); 0.66% of 150,000 active; AID 588519; in the data active means % elongation below about 90%; further: some results filed as inactive read as strong as hits
Target sequence (P03300 1749-2209 limits assumed): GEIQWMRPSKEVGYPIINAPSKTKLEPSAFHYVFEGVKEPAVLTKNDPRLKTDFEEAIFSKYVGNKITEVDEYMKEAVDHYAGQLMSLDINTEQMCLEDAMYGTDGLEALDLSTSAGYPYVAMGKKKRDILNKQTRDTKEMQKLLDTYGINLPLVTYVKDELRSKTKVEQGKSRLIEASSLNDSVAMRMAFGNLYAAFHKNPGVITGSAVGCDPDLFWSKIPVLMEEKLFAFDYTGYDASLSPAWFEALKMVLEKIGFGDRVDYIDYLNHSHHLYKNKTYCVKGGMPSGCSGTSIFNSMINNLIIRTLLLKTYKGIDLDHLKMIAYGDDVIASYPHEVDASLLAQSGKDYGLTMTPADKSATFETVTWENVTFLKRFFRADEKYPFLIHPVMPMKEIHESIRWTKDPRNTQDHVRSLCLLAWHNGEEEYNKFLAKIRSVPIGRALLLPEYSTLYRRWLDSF
MenB inh: blocks the Mycobacterium tuberculosis MenB enzyme. inhibition, %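 (about 12 µg/mL by stock and volumes)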. P9WNP5. 0.43% of 100,000 active. MenB enzyme assay, absorbance read-out; some hits fall short of the stated cut;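 active means mean of two replicates above 30%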;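 further: 0% = no compound and 100% = wells with inactive enzyme; the first replicate is given; strong numbers were not always called active; inactives centre near -10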
Target sequence (P9WNP5 whole entry, looked up): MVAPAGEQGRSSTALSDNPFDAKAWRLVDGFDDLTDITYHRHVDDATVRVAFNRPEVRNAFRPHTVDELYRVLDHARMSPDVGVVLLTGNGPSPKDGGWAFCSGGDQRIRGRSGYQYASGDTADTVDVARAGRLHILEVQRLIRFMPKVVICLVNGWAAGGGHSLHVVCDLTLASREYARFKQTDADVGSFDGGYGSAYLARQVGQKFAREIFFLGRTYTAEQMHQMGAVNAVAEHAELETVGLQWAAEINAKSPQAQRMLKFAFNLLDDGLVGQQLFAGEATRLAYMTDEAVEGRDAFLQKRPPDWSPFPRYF
Polio RdRp inh intensity: second read-out of Polio RdRp inh, no call of its own (marks repeat the call); % elongation; measured here: total intensity read-out; formula for this scale not given here;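 total fluorescence in place of polarization; lower means less elongation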
* = called active by the depositor; i = inactive; x = not tested or not shown; & = joins results of further samples.

SMILES | Mtb MbtI inh | Polio RdRp inh | Polio RdRp inh intensity | MenB inh
Cc1oc(-c2ccc(C(=O)NCCN3CCCC3)cc2)nc1CSc1ccc(Cl)cc1 | -19.4 | 99.0 | 106.0 | -8.7
N#C/C(=C\c1cn(CCC(N)=O)c2ccccc12)Sc1nc2ccccc2s1 | 5.8 | 100.0 | 102.0 | -92.9
COC(CNC(=O)c1cc(S(=O)(=O)N2CC(C)CC(C)C2)ccc1F)OC (configuration not stated) | -13.4 | 104.0 | 107.0 | -19.2
Nc1nc2ccccc2[nH]1 | -1.8 | 101.0 | 123.0 | -26.0
O=C(c1ccc2nc(/C=C(\O)c3ccc(Cl)cc3)c(=O)[nH]c2c1)N1CCOCC1 | -5.4 | 96.0 | 158.0 | -22.4
O=C(c1ccc2cn[nH]c2c1)N1CCCC1 | 2.5 | 99.0 | 101.0 | -1.9
CN(CC(=O)N1CCc2ccccc21)S(=O)(=O)c1ccc2nc(-c3ccccc3)[nH]c2c1 | 148.8 | 99.0 | 103.0 | -1.0
CCCOc1ccc(NC(=O)CC2C(=O)N(CC)C(=S)N2CCNC(C)=O)cc1 (configuration not stated) | 9.1 | 98.0 | 101.0 | 6.4
OC(c1ccccc1)c1nc2ccccc2n1-c1ccccc1 (configuration not stated) | -3.0 | 101.0 | 95.0 | x
Nn1c(SCc2ccc(F)c3ccccc23)nc2ccccc2c1=O | x | 102.0 | 107.0 | 1.7
Cc1noc2ncnc(N(C)CCO)c12 | -2.5 | 106.0 | 103.0 | -23.9
Cc1ncc([N+](=O)[O-])n1CCO | 10.5&-3.5 | 98.0&102.0 | 98.0&100.0 | 1.3&-1.6
Cc1ccc(Sc2c(N)n(C)c(=O)[nH]c2=O)cc1 | 0.1 | 100.0 | 99.0 | 9.3
CCOc1ccc(N(C)Cc2cc(=O)oc3ccc(OCC)cc23)cc1 | 16.6 | 101.0 | 103.0 | -1.2
O=C(Nc1ccccc1)Nc1ccc(F)cc1 | -8.0 | 98.0 | 101.0 | -38.4
Cc1nn(CCO)c(N)c1C1(O)C(=O)N(C)c2ccccc21 (configuration not stated) | -0.5 | 103.0 | 105.0 | -26.2
O=C(O)CC(C(=O)O)c1cn(Cc2ccccc2)c2ccccc12 (configuration not stated) | -0.7 | 100.0 | 102.0 | 25.4
Cc1n[nH]c(=S)n(/N=C/C=C/c2ccccc2)c1=O | 10.4 | 98.0 | 102.0 | -55.0
CCCn1c2ccccc2c2cnn(CC(=O)NC3CCN(Cc4ccccc4)CC3)c(=O)c21 | 30.0 | 103.0 | 102.0 | -17.3
NC(=O)COc1ccc(C=C2C(=O)c3ccccc3C2=O)cc1 | 13.0 | 101.0 | 104.0 | -16.1
C/C(=N\N=C(N)N)c1ccc(Cl)cc1 | 15.7 | 95.0 | 102.0 | -63.9
O=S(=O)(c1ccccc1)c1nnn2c1nc(Cl)c1ccccc12 | -5.2 | 97.0 | 107.0 | -1.4
CCN(C(=O)COc1ccc(Cl)cc1)C1CCCCC1 | 2.2 | 100.0 | 100.0 | -35.5
CN(C)c1nc(Cl)nc(N(C#N)CN2C(=O)c3ccccc3C2=O)n1 | x | 102.0 | 99.0 | -4.9
O=C(O)Cc1nc(-c2ccncc2)n[nH]1 | -10.4 | x | x | -14.3
Next section.
SMILES | Mtb MbtI inh | Polio RdRp inh | Polio RdRp inh intensity | MenB inh
Cc1cc(NC(=O)Cc2cccc3ccccc23)n[nH]1 | -2.6 | 101.0 | 104.0 | -3.1
S=C(NCc1ccccc1)N/N=C/c1ccccn1 | 19.1 | 110.0 | 111.0 | -15.8
CC1CCCC(C)N1NC(=O)Cc1ccccc1 (configuration not stated) | 1.6 | 102.0 | 98.0 | -7.2
COc1ccc(CN2C(=O)c3ccccc3C2=O)cc1C(=O)OCc1nnc(-c2ccccc2)o1 | -4.0 | 103.0 | 106.0 | -13.5
COc1cc(C)cc(CN2CC=C(c3ccccc3)CC2)c1O | -10.7 | 101.0 | 103.0 | -25.8
CCN(CC)S(=O)(=O)c1ccc(C(=O)N2CCN=C2SC)cc1 | 6.2 | 100.0 | 94.0 | -16.0
CC(C)C(=O)Nc1sc2c(c1C(=O)OCc1nnc3n(C)c(=O)c4ccccc4n13)CCC2 | -1.9 | 106.0 | 110.0 | 8.0
CC(C)(C)c1ccc(C(=O)n2cc(Cl)cn2)cc1 | x | 100.0 | 111.0 | -8.1
Cc1ccc(S(=O)(=O)NC2c3ccccc3Oc3ccccc32)cc1 | 5.2 | 104.0 | 109.0 | -36.7
C=CCNC(=O)c1cc(C)nc2ccccc12 | 0.2 | 105.0 | 109.0 | -18.7
CC1SCC(NC(=O)c2ccc(Cl)cc2)CS1 (configuration not stated) | 11.1 | 101.0 | 96.0 | 14.1
Cc1ccc(Cc2nn3c(C(=O)c4cccs4)nn(-c4ccc(Cl)cc4)c3nc2=O)cc1 | -12.7 | 104.0 | 114.0 | 6.9
CN(C)c1ccc(/C=C/C(=O)/C=C/c2ccco2)cc1 | 45.5 | 107.0 | 120.0 | -110.6
O=S(=O)(NCC(c1ccco1)S(=O)(=O)c1ccccc1)c1ccccc1 (configuration not stated) | -12.4 | 103.0&106.0 | 106.0&107.0 | -19.3
Cc1ccc(C(=O)OC2=C(c3ccccc3)C(=O)c3ccccc3C2=O)cc1 | -6.8 | 103.0 | 106.0 | -35.8
Cc1ccc(/C=C/C(=O)NCCc2c[nH]c3ccccc23)o1 | 7.8 | 100.0 | 96.0 | -22.6
Cc1nn(Cc2ccccc2)cc1C(=O)O | -2.8 | 102.0 | 101.0 | 32.1
O=C1c2ccccc2C(=O)N1CSC1=NCCS1 | -18.1 | 97.0 | 110.0 | 13.1
COc1ccc(NC(=O)OCC(C)C)cc1OC | -14.2 | 104.0 | 103.0 | -1.5
CN(C)CCSc1nc2ccccc2[nH]1 | 0.2 | 101.0 | 102.0 | 5.7
CCC(=O)Nc1cc(C(=O)NCC2CCCN2CC)c(OC)cc1N(C)C (configuration not stated) | 5.4 | 105.0 | 102.0 | 3.1
CC(C)COC(=O)Cc1c(O)c2ccccc2[nH]c1=O | -345.9 | 100.0 | 102.0 | -0.3
Nn1c(Cn2ccnc2)nnc1Cn1ccnc1 | x | 105.0 | 113.0 | -7.8
C=CCNC(=O)c1ccc(Cl)c(Cl)c1 | 2.5 | 106.0 | 103.0 | -51.6
Clc1ccc(NCCN2CCCCCC2)nn1 | -2.1 | 99.0 | 101.0 | 23.8

14 entries from above, with tabs:
SMILES	Mtb MbtI inh	Polio RdRp inh	Polio RdRp inh intensity	MenB inh
Cc1cc(NC(=O)Cc2cccc3ccccc23)n[nH]1	-2.6	101.0	104.0	-3.1
S=C(NCc1ccccc1)N/N=C/c1ccccn1	19.1	110.0	111.0	-15.8
CC1CCCC(C)N1NC(=O)Cc1ccccc1 (configuration not stated)	1.6	102.0	98.0	-7.2
COc1ccc(CN2C(=O)c3ccccc3C2=O)cc1C(=O)OCc1nnc(-c2ccccc2)o1	-4.0	103.0	106.0	-13.5
COc1cc(C)cc(CN2CC=C(c3ccccc3)CC2)c1O	-10.7	101.0	103.0	-25.8
CCN(CC)S(=O)(=O)c1ccc(C(=O)N2CCN=C2SC)cc1	6.2	100.0	94.0	-16.0
CC(C)C(=O)Nc1sc2c(c1C(=O)OCc1nnc3n(C)c(=O)c4ccccc4n13)CCC2	-1.9	106.0	110.0	8.0
CC(C)(C)c1ccc(C(=O)n2cc(Cl)cn2)cc1	x	100.0	111.0	-8.1
Cc1ccc(S(=O)(=O)NC2c3ccccc3Oc3ccccc32)cc1	5.2	104.0	109.0	-36.7
C=CCNC(=O)c1cc(C)nc2ccccc12	0.2	105.0	109.0	-18.7
CC1SCC(NC(=O)c2ccc(Cl)cc2)CS1 (configuration not stated)	11.1	101.0	96.0	14.1
Cc1ccc(Cc2nn3c(C(=O)c4cccs4)nn(-c4ccc(Cl)cc4)c3nc2=O)cc1	-12.7	104.0	114.0	6.9
CN(C)c1ccc(/C=C/C(=O)/C=C/c2ccco2)cc1	45.5	107.0	120.0	-110.6
O=S(=O)(NCC(c1ccco1)S(=O)(=O)c1ccccc1)c1ccccc1 (configuration not stated)	-12.4	103.0&106.0	106.0&107.0	-19.3

The list goes on:
SMILES | Mtb MbtI inh | Polio RdRp inh | Polio RdRp inh intensity | MenB inh
CC(OC(=O)C(C)N1C(=O)c2ccccc2C1=O)C(=O)c1ccccc1 (configuration not stated) | -28.5 | 100.0 | 103.0 | -11.3
O=C(Nc1ncnc2sccc12)c1cccs1 | 17.0 | 100.0 | 105.0 | -28.7
CC1CC(C)CN(S(=O)(=O)c2ccc(-n3cccn3)cc2)C1 (configuration not stated) | -1.0 | 103.0 | 105.0 | -20.3
CC1N(C)c2cc(CN3C(=O)c4ccccc4C3=O)ccc2C1(C)C (configuration not stated) | -4.2 | 105.0 | 109.0 | -33.4
CC(C)CCn1c(CC(C)(C)C)nc2ccccc21 | -7.6 | 101.0 | 105.0 | -21.8
CN(C)C(=O)c1ccccc1NC(=O)Nc1ccccc1 | -29.7 | 99.0 | 102.0 | 2.9
CNC(=O)Cn1ncc2c3ccccc3n(Cc3cc(C)ccc3C)c2c1=O | -16.9 | 102.0 | 98.0 | 1.2
O=C(CSc1nc2c(c(=O)n1-c1ccccc1)SCC2)Nc1nccs1 | 6.1 | 102.0 | 103.0 | 7.0
O=C(c1ccccc1)N(c1ccc2oc3c(c2c1)CCCC3)S(=O)(=O)c1ccccc1 | 3.9 | 101.0 | 96.0 | -34.6
O=C(Nc1nccs1)c1ccc2c(=O)n3c(nc2c1)CCCCC3 | 2.3 | 96.0 | 101.0 | 8.4
O=C(c1ccc2c(c1)N(Cc1ccccc1)C(=O)c1ccccc1S2=O)N1CCOCC1 (configuration not stated) | 0.1 | 100.0 | 101.0 | -3.3
CC1Cc2cc(C(=O)COC(=O)c3n[nH]c(=O)c4ccccc34)ccc2N1S(C)(=O)=O (configuration not stated) | 16.1 | 96.0 | 104.0 | -4.3
Cn1ccnc1SC(C(=O)Nc1ccccc1)C(=O)Nc1ccccc1 | 25.6 | 100.0 | 99.0 | -14.3
CCOc1ccc(-n2c(-c3ccccc3)c[n+]3c2CCC3)cc1 | -1.1 | 103.0 | 107.0 | -0.9
CC(C)C(NC(=O)OCc1ccccc1)C(=O)Oc1ccc2c(=O)c(Oc3ccccc3)coc2c1 (configuration not stated) | x | 108.0 | 106.0 | -29.3
CC(Oc1cccc2c1CCN(C)C2=O)c1ccccc1 (configuration not stated) | -7.6 | 103.0 | 101.0 | -31.2
CN=C1NC(=NC)c2ccccc21 | 29.9 | 102.0 | 101.0 | x
CCN(CC)S(=O)(=O)c1ccc(C(=O)C2=C3SC=C(c4ccc(OC)cc4)N3CC2)cc1 | 5.3 | 109.0 | 106.0 | -36.8
c1coc(-c2cc(C3CCNCC3)[nH]n2)c1 | -3.9 | 95.0 | 102.0 | 16.1
CCn1c2ccccc2c2cc(NC(=O)Oc3ccccc3)ccc21 | 101.6 | 102.0 | 108.0 | -23.1
COc1cc(Cc2nnc(C(=O)NC3CCCCCC3)o2)cc(OC)c1OC | -9.9 | 103.0 | 104.0 | -11.4
Cc1cc(=O)n2[nH]c(NC(=O)c3cccs3)nc2n1 | x | 106.0 | 109.0 | -7.3
Cc1ccc(NC2CCCCC2NS(=O)(=O)c2ccccc2)cc1 (configuration not stated) | -2.9 | 103.0 | 105.0 | 8.1
C=C(C)CSC1=C(C#N)C(C)(C)C(C#N)C(=O)N1 (configuration not stated) | x | 101.0 | 103.0 | -15.4
Cn1c(SCCN2CCCC2)nnc1C1CCCN1C(=O)NC1CCCCC1 (configuration not stated) | -7.0 | 100.0 | 101.0 | -72.0
Later entries.
SMILES | Mtb MbtI inh | Polio RdRp inh | Polio RdRp inh intensity | MenB inh
CC(=O)Nc1sc2c(c(=O)c1O)CCCC2 | 16.4 | 101.0 | 112.0 | 18.8
CC(C)C(C)(C#N)NC(=O)CSc1nncn1C (configuration not stated) | -5.2 | 110.0 | 114.0 | -8.8
CCN(CC)c1ccc(/C=N/n2c(C)cc(C)cc2=O)cc1 | -8.9 | 103.0 | 103.0 | -43.5
CC1CN=C(N(Cc2ccccc2Cl)C(=O)Nc2cccc(Cl)c2)S1 (configuration not stated) | x | 105.0 | 105.0 | 6.6
CC1CCC2(CC1)Nc1ccccc1C(=O)N2CCc1ccccc1 (configuration not stated) | i | 99.0 | 103.0 | -57.5
Cc1ccc2oc(-c3ccccc3)cc(=NCCO)c2c1 | 155.5 | 97.0 | 90.0 | -4.7
O=C(NCC12CC3CC(CC(C3)C1)C2)c1ccccc1 | -0.3 | 103.0 | 103.0 | -6.4
CCc1ccc(Nc2ncc3c(n2)CC(C)CC3=O)cc1 (configuration not stated) | 16.1 | 102.0 | 105.0 | -15.2
CN(C)c1cc(N)c2ccccc2n1 | -18.1 | 100.0 | 102.0 | -19.7
O=C(Nc1ccc2c(c1)nc1n2CCCCC1)c1ccc(Br)o1 | 3.6 | 102.0 | 106.0 | x
Cc1onc(-c2ccccc2Cl)c1C(=O)N(Cc1nc(-c2ccccc2)no1)C(C)C | 1.5 | 103.0 | 102.0 | -26.7
NC(=O)COC(=O)c1cc2c(s1)CCC2 | -132.3 | 92.0 | 98.0 | 3.2
O=S(=O)(c1ccc(NC(=S)N2CCCC2)cc1)N1CCCCC1 | -6.4 | 101.0 | 105.0 | 1.0
O=C(COc1ccc(C=C2C(=O)NC(=O)NC2=O)cc1)NCC1CCCO1 (configuration not stated) | -4.4 | 101.0 | 100.0 | -2.6
Cc1cc(Br)ccc1NC(=O)C1CC(O)CN1C(=O)OCc1ccccc1 (configuration not stated) | -14.7 | 105.0 | 103.0 | -4.2
